MT1-MMP act inh: blocks activation of human MT1-MMP | P50281 | HT1080 RFP-PRO-GFP cells, GFP/RFP ratio fluorescence, overnight; percent of plate control window, DMSO zero | GFP/RFP ratio change, % at 20 µM | actives 0.061% (n = 360,000);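 active means GFP/RFP ratio change of at least 30% with cell ATP level not reduced by more than half and red fluorescence within 50% of control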; further: strong numbers were not always called active
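Test system: HT1080 cells expressing an RFP-PRO-GFP fluorescent reporter construct / Compound dosing: single-point 20 µM compound, 1% DMSO / Schedule: cells overnight before dosing, compound overnight, 37 °C, 5% CO2 / Evaluation: GFP/RFP fluorescence ratio / Control set: DMSO and RFP-L50D-GFP cell wells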
HIV Env fusion: blocks HIV Env-driven cell-cell fusion; HeLa-JRFL Env/CEM21 cell fusion, luciferase; inhibition, % at 12.3 µM; actives 1.1% (n = 360,000); AID 651610;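 active means mean replicate inhibition score of at least 50 and every replicate individually at or above 50; inconclusive means only one of the two criteria met; inactive means mean below 50 and not all replicates reaching 50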;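 further: 0% = plate neutral controls and 100% = maraviroc near 300 nM; one replicate is shown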
CSC inhib: cancer stem cell inhibition. actives 1.1% (n = 300,000). inhibition, % at 7.5 µM. cancer stem cell-like cells viability, luminescence;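 active means mean at 75% or more and at least half the replicates too; inconclusive means mean and replicates disagree; tested in HMLE shEcad cells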;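 further: 0% = median of negative and 100% = median of positive control wells; the first replicate is given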
Rce1 inh: blocks yeast Ras-converting enzyme. actives 0.27% (n = 290,000). Q03530. calls only. yeast membranes, quenched prenylated peptide cleavage fluorescence;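 active means fall in fluorescence gain of 50% or more versus controls, with final raw signal at or below 3038400; inconclusive means same 50% fall but final raw signal above 3038400; inactive means fall in fluorescence gain under 50%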;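 further: plate controls were neutral control wells for no effect and wells lacking membranes for full effect; tested at 10 µM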
eIF4H inh: inhibitors of RNA binding by human eIF4H; inhibition, % at 35 µM; Q15056; eIF4H fluorescence polarization binding assay; AID 2012; actives 0.94% (n = 290,000);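 active means 50% or more with normal probe brightness, or confirmed in later tests; inconclusive means above 50% with abnormal brightness, or retests that disagree; inactive means below 50% or failed in later tests; about a fifth of its hits are not listed in these tables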;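 further: calls also rest on retests at 20 µM and on dose response follow-up; 0% = protein and probe with vehicle and 100% = probe without protein; strong numbers were not always called active; many hits fall short of the cut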
PABP polyA inh: blocks human PABP binding to poly(A) RNA; fluorescence polarization; inhibition, % at 35 µM; actives 1% (n = 290,000); AID 2014;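 active means 50% or more with normal probe brightness, or confirmed in later tests; inconclusive means above 50% with abnormal brightness, or retests that disagree; inactive means below 50% or failed in later tests; about a fifth of its hits are not listed in these tables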;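 further: calls also rest on retests at 20 µM and on dose response follow-up; controls were probe without protein and protein plus probe with vehicle; some compounds called inactive have numbers as strong as hits; many hits fall short of the cut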
Target sequence (P11940 whole entry, looked up): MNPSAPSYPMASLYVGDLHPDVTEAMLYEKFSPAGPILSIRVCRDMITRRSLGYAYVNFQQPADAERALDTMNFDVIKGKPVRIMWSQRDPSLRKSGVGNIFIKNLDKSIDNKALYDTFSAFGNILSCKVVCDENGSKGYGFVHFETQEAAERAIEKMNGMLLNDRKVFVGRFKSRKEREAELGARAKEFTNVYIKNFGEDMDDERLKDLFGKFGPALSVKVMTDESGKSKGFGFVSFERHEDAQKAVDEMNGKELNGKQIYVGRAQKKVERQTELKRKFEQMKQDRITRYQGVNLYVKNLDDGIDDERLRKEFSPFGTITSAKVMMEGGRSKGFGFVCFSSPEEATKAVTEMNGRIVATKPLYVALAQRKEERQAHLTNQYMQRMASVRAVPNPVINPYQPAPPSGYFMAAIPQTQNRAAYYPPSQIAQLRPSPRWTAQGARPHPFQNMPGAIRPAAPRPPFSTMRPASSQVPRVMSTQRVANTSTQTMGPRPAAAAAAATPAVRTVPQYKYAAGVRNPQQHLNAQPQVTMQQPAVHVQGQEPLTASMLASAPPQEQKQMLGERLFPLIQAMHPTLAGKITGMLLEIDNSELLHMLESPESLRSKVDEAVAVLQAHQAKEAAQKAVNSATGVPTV
UUG fidelity: alters start codon recognition fidelity in yeast; actives 0.13% (n = 350,000); S. cerevisiae UUG-firefly luciferase reporter, luminescence/redox ratio; activity score, % at 18.7 µM;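 active means replicate mean at a twofold rise or more, about +100% in these data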;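 further: firefly luciferase made from a UUG start codon reports start codon fidelity; reporter light over untreated wells divided by growth signal over untreated wells; some hits fall short of that in this replicate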
eIF4H inh retest: further read-out of eIF4H inh, marked with its call; inhibition, %; compound at 20 µM; confirmation average;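 mean of two retest wells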
PABP polyA inh retest: recorded beside PABP polyA inh, whose call it bears; inhibition, %; compound at 20 µM; confirmation repeats;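 mean of two retest wells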
MT1-MMP act inh RFP: further read-out of MT1-MMP act inh, marked with its call; RFP signal change, %; measured here: RFP expression control read;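 0 = vehicle wells; hits needed this value within 50% of zero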
An asterisk follows results filed as active; i = inactive; ? = inconclusive; . = no result given; & = joins results of further samples. An excerpt. The share of hits here may be higher or lower than overall.

SMILES	MT1-MMP act inh	MT1-MMP act inh RFP	HIV Env fusion	CSC inhib	Rce1 inh	eIF4H inh	PABP polyA inh	UUG fidelity	others
CN1CCN(c2nc3ccccn3c(=O)c2C=C2C(=O)N(C)C(=O)N(C)C2=O)CC1	-3	5	.	-12	i	?	120*	-11	PABP polyA inh retest=106*
CC12CN3CC(C)(CN(C1)C31CCSCC1)C2=O	3	5	.	-11	i	-8	-3	-5
O=C1NC(=O)N(CCC2=CCCCC2)C(=O)/C1=C\c1cccs1	2	7	7	13	i	2	-4	.
COc1ccc(CCNCc2ccc(Br)cc2)cc1OC	2	8	26	-4	i	8	3	1
CN1C(=O)NC(=O)/C(=C/c2ccc([N+](=O)[O-])o2)C1=O	.	.	7	-12	i	?	49*	.	PABP polyA inh retest=113*
COc1ccc(C(O)P(=O)(Oc2ccccc2)Oc2ccccc2)cc1 (stereo not drawn)	2	-2	5	11	i	-7	-1	-9
N#CCCn1cc(C(=O)Nc2ccc([N+](=O)[O-])cc2)c(-c2ccc3c(c2)OCCO3)n1	-1	-1	34	-1	i	-5	-1	.
COc1ccc(CNCCc2c[nH]c3ccccc23)c(OC)c1OC	-2	1	?	-5	i	-8	8	-26
CCC(=O)Nc1ccc(N2CCN(CC)CC2)c(Cl)c1	0	3	.	14	i	6	3	-18
CN(C)C(=O)Oc1cccc(NC(=O)c2ccccc2C(F)(F)F)c1	-1	1	-13	6	i	3	-2	.
C[C@@H]1C(=O)O[C@@H]2[C@H](O)C34[C@@H]5OC(=O)C3(O[C@H]3OC(=O)[C@H](O)C34[C@H](C(C)(C)C)[C@H]5O)[C@@]12O (stereo partly drawn)	-4	2	23	-6	i	3	-10	31
O=c1[nH]c2ccccc2o1	4	1	.	-1	.	2	28	-12
COP(=O)(CC(=O)O)c1ccccc1 (stereo not drawn)	-2	2	-8	-7	i	-10	-1	-28
CC12CN3CN(C1)CC(c1ccccc1)(C3)C2=O	-3	4	.	-16	i	0	-1	.
NCCCCCC(=O)OC1N=C(c2ccccc2Cl)c2cc(Br)ccc2NC1=O (stereo not drawn)	-3	-2	-2	-19	i	6	-6	8
Cc1cccc(OCCn2cccc2/C=C2/C(=O)NC(=O)N(Cc3ccco3)C2=O)c1	-13	5	-16	35	i	53*	45*	-7	eIF4H inh retest=102*;PABP polyA inh retest=69*
CNC(C(=O)c1ccccc1)C(OC(C)C)c1ccc(Cl)cc1 (stereo not drawn)	-4	-3	48	-4	i	-4	-10	3
CCCCC1C(=O)NC(=S)NC1=O	.	.	.	-21	i	2	11	.
COC(=O)C1=C(c2cc3ccccc3o2)C[C@@H]2CC[C@H]1N2C(=O)N1CCCC1	-4	-12	16	-10	i	.	.	-11
C[C@@H]1CC2C3CC=C4C[C@@H](O)CC[C@]4(C)C3CC[C@]2(C)[C@H]1O (stereo partly drawn)	5	0	.	-14	.	.	.	1
CCN1CCN(C(=O)COc2ccc3oc4c(c3c2)CCCC4)CC1	4	5	.	-4	.	.	.	-9
COc1ccc(/C=C2/C(=O)NC(=O)N(Cc3ccco3)C2=O)cc1	.	.	.	4	i	?	?	.
O=C(NCc1cccnc1)NC1CCCCC1	6	6	.	0	i	-2	-1	4
CCC1=Nc2cc(C(=O)N3CCC4(CC3)OCCO4)ccc2Sc2ccc(C)cc21	-1	-2	-13	0	i	-6	-4	-17
COC(=O)C1=C(c2cc3ccccc3s2)C[C@@H]2CC[C@H]1N2C(=O)NCCS(C)=O (stereo partly drawn)	-4	0	-6	-4	i	.	.	-1
COc1cccc(-c2sc3ccccc3c2-c2ccc(OCCN3CCOCC3)cc2)c1	-8	-10	14	104*	.	.	.	10
Cc1cc(N(CCCl)CCCl)ccc1/C=N/N=C(\N)c1cnccn1	11	3	10	11	i	.	.	.
CCCc1nnc(NC(=O)CCC(=O)N2CCC3(CC2)OCCO3)s1	1	1	1	-11	i	14	-7	.
CNC(=O)Oc1ccc2c(c1)C(=O)c1ccccc1CO2	5	7	.	3	i	36	47	0
CC1(C)C(=O)CC[C@@]2(C)C1=CCC1C2CC[C@]2(C)C(=O)CCC12 (stereo partly drawn)	5	-5	15	-8	.	.	.	.
COC(=O)C1=C(c2ccc(F)cc2F)C[C@@H]2CC[C@H]1N2C(=O)NC1Cc2ccccc2C1	6	1	28	-4	.	.	.	-5
CCOC(=O)C1=C(C)OC(N)=C(C(=O)OCC)C12C(=O)Nc1ccc(Br)cc12 (stereo not drawn)	-6	3	.	-21	i	-7	2	8
CCN1C[C@@]2(COC)C3[C@@H](OC)[C@H]4[C@@H]1[C@@]3(C1C[C@H]3[C@H](OC(C)=O)C1[C@]4(OC(C)=O)C[C@H]3OC)[C@@H](OC)C[C@H]2OC(C)=O (stereo partly drawn)	-7	-6	.	3	i	.	.	-7
Cc1ccccc1N1C(=O)CC(=O)NC1=O	-8	7	-17	6	i	26	41	-12
O=C1NC(=O)N(Cc2ccccc2)C(=O)/C1=C/c1cnn(-c2ccccc2)c1	.	.	.	14	i	?	-10	.
COc1ccc(C(c2nnnn2Cc2ccccc2)N2CCC(n3c(=O)[nH]c4ccccc43)CC2)cc1 (stereo not drawn)	-10	-5	-4	.	.	.	.	8
Cc1cc(OC(=O)N(C)C)nc(SCc2c(Cl)cccc2Cl)n1	-3	0	9	47	.	2	2	.
Cc1nonc1OCCNc1ccc([N+](=O)[O-])c2cccnc12	1	-2	.	-22	i	9	-1	.
CCCNC(=O)c1c(N)n(Cc2ccc3c(c2)OCO3)c2nc3ccccc3nc12	-20	-1	.	8	i	-3	6	-15
CCOCCCn1c(N)c(C(=O)Nc2sc3c(c2C(=O)OC)CCCC3)c2nc3ccccc3nc21	-134	19	-10	.	i	?	34	-8
Cc1cc(N2CCCCC2)ccc1C=C1C(=O)N(C)C(=S)N(C)C1=O	48	61	-12	-8	i	24	3	.
Cc1ccc(CN2CCN(Cc3ccccc3F)CC2)cc1	1	1	-5	.	i	-3	-5	-12
Cc1ncc(CN2CCCC(C(=O)c3ccc(C(C)(C)C)cc3)C2)s1 (stereo not drawn)	-5	-17	45	14	i	0	-8	.
C=C1C(=O)O[C@@H]2C[C@@H](C)[C@@H]3C=CC(=O)[C@@]3(C)[C@@H](O)[C@H]12	-13	-31	.	52	i	33	35	-28
Cc1cc(C)cc(OCCOc2cccc(C=C3C(=O)NC(=O)NC3=O)c2)c1	3	2	-7	-5	i	-6	12	-10
CN(C)C(=O)Oc1noc2cc(Cl)ccc12	-3	-1	6	-1	i	-15	-4	.
Clc1ccc(C(c2ccc(Cl)cc2)n2cc[n+](CC(OCc3ccc(Cl)cc3Cl)c3ccc(Cl)cc3Cl)c2)cc1 (stereo not drawn)	-40	-38	?	107*	.	.	.	-4
CCN1C(=O)C(=C/C=C/c2ccco2)C(=O)N(CC)C1=S	-4	69	10	20	i	20	-8	.
Brc1cccc(CNCCc2ccc3c(c2)OCO3)c1	-1	-1	-4	11	i	6	28	2
Cc1cc(=O)oc2cc(OCC(=O)N3CCN(Cc4ccc5c(c4)OCO5)CC3)ccc12	-2	2	-2	18	i	-7	6	-2

The closing four entries of the part above come first, to join the parts.
SMILES	MT1-MMP act inh	MT1-MMP act inh RFP	HIV Env fusion	CSC inhib	Rce1 inh	eIF4H inh	PABP polyA inh	UUG fidelity	others
Clc1ccc(C(c2ccc(Cl)cc2)n2cc[n+](CC(OCc3ccc(Cl)cc3Cl)c3ccc(Cl)cc3Cl)c2)cc1 (stereo not drawn)	-40	-38	?	107*	.	.	.	-4
CCN1C(=O)C(=C/C=C/c2ccco2)C(=O)N(CC)C1=S	-4	69	10	20	i	20	-8	.
Brc1cccc(CNCCc2ccc3c(c2)OCO3)c1	-1	-1	-4	11	i	6	28	2
Cc1cc(=O)oc2cc(OCC(=O)N3CCN(Cc4ccc5c(c4)OCO5)CC3)ccc12	-2	2	-2	18	i	-7	6	-2
O=C1NC(=O)C(CCc2ccncc2)(C2CCCCC2)C(=O)N1	0	2	.	7	i	-5	5	-6
CN(N)N=Nc1nc2c([nH]1)c(=O)n(C)c(=O)n2C	-2	1	12	-3	i	-6	-2	.
c1ccc2nc(N3CCNCC3)ccc2c1	1&-1	6&2	-10&30	8	.	.	.	-10&-31
C[N+]1(C)C2CCC1CC(OC(=O)c1ccccc1)C2 (stereo not drawn)	-3	1	3	-4	i	1	43	.
OCC1OC(n2cnc3cc(Cl)c(Cl)cc32)C(O)C1O (stereo not drawn)	-7	-1	32	.	.	.	.	-23
C[N+]1(C)[C@@H]2CC[C@H]1CC(OC(=O)C(c1ccccc1)c1ccccc1)C2 (stereo partly drawn)	-4	-1	9	-12	i	.	.	11
C[C@H]1CC2C3CC=C4C[C@@H](O)CC[C@]4(C)C3CC[C@]2(C)[C@H]1O (stereo partly drawn)	1	-4	.	-5	.	.	.	5
CC(C)N(Cc1ccco1)/N=C/c1c(O)n(Cc2ccccc2)c(=O)[nH]c1=O	7	-11	11	24	i	-3	-14	-16
CCOC(=O)C1=C(N)Oc2cc(C)oc(=O)c2C12C(=O)N1c3c(cccc32)C(C)CC1(C)C (stereo not drawn)	-5	-2	.	-1	i	-3	2	.
Cc1ccccc1N1C(=O)NC(=O)/C(=C/c2ccc(N3CCOCC3)o2)C1=O	-48	-3	-1	15	i	?	?	64
CC12CN3CC(C)(CN(C1)C3c1cccs1)C2=O (stereo not drawn)	1	1	11	3	i	-4	-7	1
O=C(NCCN1CCOCC1)c1ccc(Cl)nc1Cl	-1	1	3	-3	i	2	0	.
Cc1ccc2c(c1)N(C(C)C(=O)N1CCC3(CC1)OCCO3)C(=O)CO2 (stereo not drawn)	-1	2	6	-3	i	-4	14	-15
COC(=O)[C@@H]1[C@@H](C(=O)OC)C2(c3ccccc3-c3ccccc32)N(c2ccc(Cl)cc2)N1C#N	8	1	.	-10	i	-6	-1	-9
CCCCn1c(O)c(C(CC)=NCc2ccco2)c(=O)[nH]c1=O	1	1	.	-19	i	10	-6	-7
CCC(=O)c1cc(F)c(N2CCN(CC)CC2)cc1C	1	2	-94	35	i	2	-3	-1
c1ccc2c(CN3CCCCCC3)c[nH]c2c1	-2	-2	-2	-13	i	-9	-3	-15
O=C(NC(Cc1ccccc1)C(=O)N1CCC2(CC1)OCCO2)C1CCCCC1 (stereo not drawn)	-4	-2	-62	5	i	-5	-9	.
CCN1/C(=C\C=C\C2=[N+](CC)c3ccccc3C2(C)C)C(C)(C)c2ccccc21	-35	94	.	93*	i	?	?	-32
O=[N+]([O-])c1ccccc1CCl	1	7	.	7	.	.	.	-14
CCCC(=O)NC(Oc1ccc(OC)cc1)C(Cl)(Cl)Cl (stereo not drawn)	-3	-3	10	2	i	5	-8	.
Cn1c[n+](C)cc1C(O)c1ccccc1 (stereo not drawn)	2&-4	3&2	-35	-13&-14	i	7&0	65*	-1&-16
COC(=O)CC1=C(C(=O)OC)C2(C(=O)N(C)c3ccccc32)C(C#N)=C(N)O1 (stereo not drawn)	2	3	-10	-7	i	-2	-2	-14
COC(=O)C1=C(c2cc3ccccc3s2)C[C@@H]2CC[C@H]1N2C(=O)N1CCC(O)CC1	5	-2	7	10	i	.	.	-6
CC(C)(C#CC(=O)O)OOC(c1ccccc1)(c1ccccc1)c1ccccc1	-1	0	17	23	i	-6	0	0
CCN1CCN(C(=O)Cc2c(C)n(C(=O)c3ccc(Cl)cc3)c3ccc(OC)cc23)CC1	1	-4	29	3	i	15	-1	.
